# Bioassay records deposited in PubChem by ICCB-Longwood Screening Facility, Harvard Medical School.
# MgrA-DNA mod: modulators of Staphylococcus aureus MgrA DNA binding | fluorescence polarization | 0.13% of 84,000 active | AID 602314 | inhibition, %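 (about 10 µg/mL by stock and volumes)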;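 active = above 50% in either of two replicates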;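 note: 0% = protein plus DNA without compound and 100% = DNA alone without protein; higher means less MgrA bound to DNA so lower polarization; one replicate is shown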
# S aureus helic: S. aureus DNA helicase inhibition; purified S. aureus helicase, fluorescence unwinding assay; about half of the hits fall short of the stated cut; inhibition, %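 (tested at about 80 µM)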; 0.05% of 120,000 active; AID 485395;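 active = both duplicates at 50% or more, or one of them with a favoured structure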;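 note: 0% = mean of negative control wells and 100% = mean of positive control wells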
# An asterisk follows results filed as active; . = no result given; & = joins results of further samples. Some of the compounds tested; count on the stated rates, not on these rows.
# A first look (2 entries):
SMILES,MgrA-DNA mod,S aureus helic
CCOc1cc(/C=C2\N=C(c3cccc(C)c3)OC2=O)cc(Br)c1OC(C)=O,0.4,.
CCCCOc1ccc(C(=O)Oc2cc(C)c3oc(C=O)c(C(=O)OCC)c3c2Br)cc1,0.2,.

# Results, from the start:
SMILES,MgrA-DNA mod,S aureus helic
CCOc1cc(/C=C2\N=C(c3cccc(C)c3)OC2=O)cc(Br)c1OC(C)=O,0.4,.
CCCCOc1ccc(C(=O)Oc2cc(C)c3oc(C=O)c(C(=O)OCC)c3c2Br)cc1,0.2,.
c1ccc(C2C3=C(CCCC3)SC3=C2CCCC3)cc1,2.1,11
CCN(Cc1ccccc1)C(=O)C1CCN(Cc2ccc(C(F)(F)F)cc2)CC1,-3.3,-4
O=C(CSC1=NCCCCC1)c1cccc([N+](=O)[O-])c1,-7.4,.
COc1cc(/C=C/C(=O)NC(C)C2CC3CCC2C3)cc(OC)c1OC (stereo not drawn),3.0,-21
CC(=O)Oc1ccc(OC(C)=O)c(S(=O)(=O)c2ccc(C)c(C)c2)c1,1.8,11
CCOc1ccc(C2C(C(=O)OCCSCC)=C(C)NC3=C2C(=O)CC(c2ccc(OC)cc2)C3)cc1 (stereo not drawn),1.9,.
C=CCOC(=O)C1=C(C)N(C)C(=O)NC1c1cc(Br)c(O)c(OC)c1 (stereo not drawn),0.5,.
Cc1ccc2c(c1)=C(c1sc(=O)n(CC(=O)O)c1O)C(=O)N=2,1.1,-1
CCOC(=O)N1CCN(CC(O)c2ccc3c(c2)CCN3)CC1 (stereo not drawn),-0.8,10
O=C(CN1C(=O)S/C(=C\C=C\c2ccccc2)C1=O)Nc1ccc(O)cc1,.,-2
O=C(O)CN1C(=O)/C(=C2\SC(=S)N(NC(=O)c3cccc(O)c3)C2=O)c2ccccc21,8.5,.
CCCn1c(=O)c2c(=S)nc(-c3ccccc3OC)[nH]c2n(CCC)c1=O,.,6
S=c1nc(-c2ccccc2)[nH]c2ccccc12,.,14
C=CCNCC(=O)NC12CC3CC(CC(C3)C1)C2,.,-11
Cc1cc(C(=O)CC#N)c(C)n1Cc1ccccc1Cl,.,5
O=C(NNc1ccc(S(=O)(=O)N2CCCCC2)cn1)Nc1ccc(Cl)c(Cl)c1,.,-6
Cc1sc(C(=O)O)c(-n2cccc2)c1C,5.1,2
CN(C)S(=O)(=O)N1CCC(Cc2ccccc2)CC1,-1.2,19
CN(c1ccc(CN2C(=O)c3ccccc3C2=O)cc1)S(C)(=O)=O,1.4,12
Cc1cc(C)nc(NS(=O)(=O)c2ccc(N=Cc3ccccc3O)cc2)n1,-0.1,.
CCC(=O)OCCn1c(=O)c2ccccc2c2ccccc2c1=O,0.8,19
CC(Sc1ncnc2sc3c(c12)CCCC3)C(=O)O (stereo not drawn),-0.5,12
C=CCn1c(SCC(=O)Nc2ccc(S(N)(=O)=O)cc2)nc2sc3c(c2c1=O)CCCC3,-2.5,.
O=C1CS(=O)(=O)CC(=O)N1Cc1ccc(Cl)c(Cl)c1,3.5,.
CC1(C)CC(n2c(SCC#N)nc3c(c2=O)C2(CCCC2)Cc2ccccc2-3)CCO1 (stereo not drawn),1.1,-4
CN(C)S(=O)(=O)c1ccc(N2CCOCC2)nc1,0.7,27
N#CCNC(=O)CN1C(=O)c2ccccc2C1=O,2.5,-12
O=C(c1ccc2c(c1)OCO2)N1CCc2ccccc21,.,-21
C/C(Nc1ccccc1F)=C1/CCOC1=O,2.1,.
Cc1ccc(N2C(=O)c3sc4nnc(-c5ccccc5)c(=O)n4c3C2=O)cc1,.,1
Cc1ccc(-c2cc(C(=O)Nc3ccc(Br)cc3F)c3ccccc3n2)o1,6.6,14
CN(C)CCCN1c2ccccc2Sc2ccc(Cl)cc21,-2.9&-1.4,.
Cc1[nH]nc2c1C(c1cccs1)C1=C(CCCC1=O)N2 (stereo not drawn),0.6,0
O=c1[nH]nc(-c2ccc(F)cc2)c2ccccc12,-1.4,.
Nc1cccc(CN2CCCCC2)c1,-1.8,14
Cc1ccc(S(=O)(=O)OCC2COc3ccccc3O2)cc1 (stereo not drawn),0.7,.
CCOC(=O)N/N=C1\CCCCC1C (stereo not drawn),.,2
Cc1ccc2c(c1)Nc1nc3nonc3nc1N2,.,-24

# One compound at a time (already shown):
# `Cc1cc(C(=O)CC#N)c(C)n1Cc1ccccc1Cl` across the screens: MgrA-DNA mod: .; S aureus helic: 5
# `CCN(Cc1ccccc1)C(=O)C1CCN(Cc2ccc(C(F)(F)F)cc2)CC1` across the screens: MgrA-DNA mod: -3.3; S aureus helic: -4

# The results go on:
SMILES,MgrA-DNA mod,S aureus helic
O=c1[nH]c(CNCC2CCCO2)nc2ccccc12 (stereo not drawn),.,-11
CC1CC(C)(C)CC2(C1)NC(=O)NC2=O (stereo not drawn),.,-11
O=C(Nc1ccccc1)N1CCCN(Cc2ccc(F)cc2)CC1,.,-15
COC(=O)c1cccc(NC(=O)NC(C)C)c1,-1.8,.
CCOc1nccc(C(F)(F)F)c1C(=O)N(CC)c1c(C)cccc1C,.,-19
CC1=Nc2ccccc2N(CC(O)Cn2c3ccccc3c3ccccc32)C(=O)C1 (stereo not drawn),-2.9,-1
C/C(=N\NC1=NCCN1)c1ccccc1,.,17
O=C(O)CCC1CCCCCCCCCCC1=O (stereo not drawn),0.7,.
Cc1nn(-c2ccccc2)c2sc(C(=O)NC(=S)NC3CCSC3=O)cc12 (stereo not drawn),3.4,7
CN(Cc1ccccc1)c1sc(S(C)(=O)=O)nc1S(=O)(=O)c1ccc(Cl)cc1,-0.5,19
CCCc1c(C(=O)N2CCN(c3ccccc3OC)CC2)cnn1-c1ccccc1,-0.9,.
CC(C)n1cc(C#N)c(=O)[nH]c1=O,0.0,.
Cc1nc2c(c(C)nn2C(C)(C)C)c(C)c1CCC(=O)NCCCc1ccccc1,5.0,11
O=C(O)CNC1CCS(=O)(=O)C1 (stereo not drawn),2.3,.
CCOC(=O)c1c(NC(=O)c2ccc(C)c([N+](=O)[O-])c2)sc(C(=O)Nc2ccc(OC)cc2)c1C,-1.0,.
O=C1OC(Nc2ccc(C(F)(F)F)cc2)c2ccccc21 (stereo not drawn),-0.6,.
C=CCn1c(C)cc(C(=O)CN(CC)CC(=O)NC2CCS(=O)(=O)C2)c1C (stereo not drawn),.,-20
CN1CCN(CCN2C(=O)c3ccccc3Sc3cc(Cl)ccc3S2(=O)=O)CC1,-3.7,.
CC(C)OCC1Cn2c(nc3c2c(=O)n(C)c(=O)n3C)O1 (stereo not drawn),.,-5
N#Cc1cnn(-c2nc3ccccc3[nH]2)c1N,.,-10
CCN(c1ccc(OC)cc1)c1ncnc2nc[nH]c12,.,8
NS(=O)(=O)c1ccc(NNC(=O)c2cccs2)cc1,.,10
CCN1CCOC(=O)C1CC(=O)Nc1cccc(C)c1 (stereo not drawn),-1.7,8
CCSc1nnc2nc3c4ccccc4c4ccccc4c3nn12,0.2,.
Cc1cc(C)cc(NC(=S)N(CCN(C)C)C2CCN(C(C)C)CC2)c1,0.0,6
CSc1nc(CSc2ccccc2)nc(N)c1C#N,-2.1,.
CCOC(=O)c1sc(-c2ccccc2)cc1NC(=O)c1cc2ccccc2oc1=O,-0.6,.
CN(c1ccc(OCC(=O)NCc2ccncc2)cc1)S(=O)(=O)c1cccs1,.,-10
O=C(CSc1nnc(-c2ccc(Cl)cc2)o1)N1CCc2ccccc2C1,.,12
Cc1noc(C)c1-c1nnc(-c2cccc(Cl)c2)o1,.,-15

# Looked up by compound from the list above, 6 records:
SMILES,MgrA-DNA mod,S aureus helic
CSc1nc(CSc2ccccc2)nc(N)c1C#N,-2.1,.
Cc1cc(C)cc(NC(=S)N(CCN(C)C)C2CCN(C(C)C)CC2)c1,0.0,6
CN(c1ccc(OCC(=O)NCc2ccncc2)cc1)S(=O)(=O)c1cccs1,.,-10
CCOC(=O)c1sc(-c2ccccc2)cc1NC(=O)c1cc2ccccc2oc1=O,-0.6,.
Cc1noc(C)c1-c1nnc(-c2cccc(Cl)c2)o1,.,-15
CCN(c1ccc(OC)cc1)c1ncnc2nc[nH]c12,.,8

# Next compounds.
SMILES,MgrA-DNA mod,S aureus helic
CN(C(=O)c1noc2c1COc1ccccc1-2)c1cccc(C(F)(F)F)c1,-1.1,9
COc1ccc2nc(NCc3cccnc3)sc2c1,-1.1,0
N#CC(C(=O)c1ccco1)c1nc2ccccc2[nH]1 (stereo not drawn),-2.5,.
Cc1ccc(NC(=O)CN(C)C(=O)CSc2nc3ccc(Cl)cc3o2)cc1,.,-8
Cc1cc(C)c(N2CCCC2C(=O)Nc2cccc(C(F)(F)F)c2)c(C)c1 (stereo not drawn),-4.8,7
CCCC(C)C(=O)N1CC(C)CC(C)C1 (stereo not drawn),1.8,13
O=C(CSc1nnc(-c2ccccc2F)n1Cc1ccccc1)Nc1cccc2nsnc12,.,-12
Cc1cc2nc(-c3cccc(NC(=O)c4cccc5c(Br)cccc45)c3)oc2cc1C,3.2,.
O=c1[nH]nc(SCCS(=O)(=O)c2ccc(F)cc2)n1C1Cc2ccccc2C1,-1.8,.
CC1CCN(C(=O)CNC(=O)c2ccc(F)cc2)CC1,.,16
Cc1cccc(NC(=O)C(F)(F)F)c1C(=O)O,-3.5,.
O=C(c1ccc(Cl)c(Cl)c1)N1CCC(F)(CO)CC1,-1.9,.
COc1ccc2nc(NC(=O)c3ccoc3C)sc2c1,-3.0,24
CCN(CC)S(=O)(=O)c1ccc(C(=O)NC2=NCCS2)cc1,.,10
OC(CSc1ccc(F)cc1)CN1CCN(c2cccc(C(F)(F)F)c2)CC1 (stereo not drawn),-1.8,.
COc1ccc2c(CC(=O)N[C@@H](Cc3c[nH]c4ccccc34)C(=O)O)coc2c1,.,-15
CCOC(=O)c1c(NC(=O)c2ccccc2F)sc(C(=O)Nc2ccc(OC)cc2OC)c1C,-0.8,.
CCOc1ccc(C(=O)COC(=O)C23CCC(=O)N2c2ccccc2C(=O)N3C)cc1 (stereo not drawn),.,10
c1ccc2c(CN3CCN(Cc4c[nH]c5ccccc45)CC3)c[nH]c2c1,-1.0,-15
COc1ccccc1Cn1c(=O)[nH]c2cccnc21,.,8

# Arranged by value in MgrA-DNA mod (descending): 3 from the list above.
SMILES,MgrA-DNA mod,S aureus helic
COc1cc(/C=C/C(=O)NC(C)C2CC3CCC2C3)cc(OC)c1OC (stereo not drawn),3.0,-21
CC(=O)Oc1ccc(OC(C)=O)c(S(=O)(=O)c2ccc(C)c(C)c2)c1,1.8,11
O=c1[nH]nc(-c2ccc(F)cc2)c2ccccc12,-1.4,.

# (list continues)
SMILES,MgrA-DNA mod,S aureus helic
Cc1cccc(-c2nc3c(cnn3-c3ccccc3)c(=O)n2-c2ccccc2)c1,-1.8,8
COc1ccc(SCC(=O)c2cn(CCC#N)c3ccccc23)cc1,.,-5
COc1ccc(CNC(=O)COc2ncnc3ccccc23)cc1,.,6
CN1CCOc2cc(S(=O)(=O)N3CCCC3c3ccc(F)cc3)ccc21 (stereo not drawn),2.3,.
N#CCCN1CCN(CCC#N)CC1,.,-13
COC(=O)Cn1ncc2ccccc2c1=O,.,5
NC(=O)CCn1nc(-c2ccccc2)c2ccccc2c1=O,-1.0,8
CCN(CC)C(=O)CSc1nc2c(cc1C#N)CCCC2,2.7,4
CN1CCN(S(=O)(=O)Cc2ccc(Cl)cc2)CC1,-3.7,.
Cc1ccc(C)c(S(=O)(=O)n2ncc(C#N)c2N)c1,.,-5
CC(C)(c1ccc(Oc2ccc(C(=O)O)c(C(=O)O)c2)cc1)c1ccc(Oc2ccc(C(=O)O)c(C(=O)O)c2)cc1,17,.
CS(=O)(=O)N1CCc2cc(C(=O)OCC(=O)c3ccccc3)ccc21,5.1,12
O=C(C1CCN(c2ncnc3c2sc2cccc(F)c23)CC1)N1CCCCCC1,-0.9,4
CCOC(=O)c1cnc2c(C#N)cnn2c1N,.,17
O=C(COc1ccccc1)Nc1cc(S(=O)(=O)C(F)(F)F)ccc1Cl,-0.8,6
CN(C)c1cccc(C(=O)OC2CCCCC2=O)c1 (stereo not drawn),.,10
O=C1CCCCC1Sc1nnc(-c2ccco2)o1 (stereo not drawn),.,-3
CNC(=S)Nc1cc(C(F)(F)F)cc(C(F)(F)F)c1,-0.2,.
COc1ccccc1Oc1ccc(S(=O)(=O)NCc2ccccn2)cc1,.,19
Cc1ccc(C)c(NC(=O)CCN2CCc3ccccc3C2)c1,0.6,8
Cc1ccc(-n2cc(-c3ccc4c(c3)OCO4)[nH]c2=S)cc1,.,13
CCOC(=O)c1[nH]c(CSc2nnc3ccccn23)c(C(=O)OCC)c1C,.,17
COCc1cc(C)nc2sc3c(=O)[nH]c(-c4ccccc4O)nc3c12,-2.2,3
O=C1c2ccccc2C(=O)N1CNc1ccc(N2CCOCC2)cc1,4.1,.
Cc1c(C)c(C)c(S(=O)(=O)Nc2cc(C(F)(F)F)cc(C(F)(F)F)c2)c(C)c1C,-3.0,.
CN(Cc1nc(-c2ccccc2)no1)C(=O)COc1ccccc1,-0.7,6
CCSc1nc(C)c(C)c(=O)[nH]1,0.3,.
COCc1cc(=O)[nH]c(SCCS(=O)(=O)c2ccc(C)cc2)n1,0.0,.
CC1CCN(c2cnnc3c(Cl)cccc23)CC1,.,29
O=C(OCCN1C(=O)c2cccc3c(N4CCOCC4)ccc(c23)C1=O)c1ccccc1[N+](=O)[O-],-2.5,.
COc1ccc2c(c1)C(=O)C(CC1(O)C(=O)Nc3ccccc31)CC2 (stereo not drawn),-2.2,12
Cc1cc(C)n2nc(C(=O)OCC(=O)N(C3CCCCC3)C3CCCCC3)nc2n1,.,-18
O=C(Nc1c(-c2ccccc2)nc2ccc(Cl)cn12)c1ccc(Cl)cc1,-5.6,.
COc1ccc(C(NC(C)=O)c2ccc(OC)cc2)cc1,1.4,8
Cc1onc(-c2ccccc2)c1C(=O)NCc1ccc(F)cc1,-2.5,1
CN(C(=O)CSc1ccc2c(c1)OCCO2)c1ccccc1,.,-11
CCc1ccc(NC(=O)Nc2cc3sccc3n2C)cc1,.,-2
N#CCc1c(Cl)cccc1Cl,.,-15
